# Screening results from PubChem.
# KCNQ2 enhance: KCNQ2 (rat) channel potentiation | B-score at 10 µM | O88943 | hit rate 0.54% among 310,000 | CHO-K1 KCNQ2, FluxOR thallium flux fluorescence; active compounds read high | AID 2239;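 active = fluorescence ratio B-score at least 3 SD of library B-scores, with initial fluorescence B-score within 3 SD, cut at about 5.3 in these data; same plate scores as AID 2156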;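 also: B-score of peak minus minimum over baseline fluorescence ratio after K+ and Tl+ stimulus; positive B-score means potentiation of KCNQ2 with more thallium influx and brighter signal; only the inactives scoring about 0 or higher are listed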
# Target sequence (O88943 whole entry, looked up): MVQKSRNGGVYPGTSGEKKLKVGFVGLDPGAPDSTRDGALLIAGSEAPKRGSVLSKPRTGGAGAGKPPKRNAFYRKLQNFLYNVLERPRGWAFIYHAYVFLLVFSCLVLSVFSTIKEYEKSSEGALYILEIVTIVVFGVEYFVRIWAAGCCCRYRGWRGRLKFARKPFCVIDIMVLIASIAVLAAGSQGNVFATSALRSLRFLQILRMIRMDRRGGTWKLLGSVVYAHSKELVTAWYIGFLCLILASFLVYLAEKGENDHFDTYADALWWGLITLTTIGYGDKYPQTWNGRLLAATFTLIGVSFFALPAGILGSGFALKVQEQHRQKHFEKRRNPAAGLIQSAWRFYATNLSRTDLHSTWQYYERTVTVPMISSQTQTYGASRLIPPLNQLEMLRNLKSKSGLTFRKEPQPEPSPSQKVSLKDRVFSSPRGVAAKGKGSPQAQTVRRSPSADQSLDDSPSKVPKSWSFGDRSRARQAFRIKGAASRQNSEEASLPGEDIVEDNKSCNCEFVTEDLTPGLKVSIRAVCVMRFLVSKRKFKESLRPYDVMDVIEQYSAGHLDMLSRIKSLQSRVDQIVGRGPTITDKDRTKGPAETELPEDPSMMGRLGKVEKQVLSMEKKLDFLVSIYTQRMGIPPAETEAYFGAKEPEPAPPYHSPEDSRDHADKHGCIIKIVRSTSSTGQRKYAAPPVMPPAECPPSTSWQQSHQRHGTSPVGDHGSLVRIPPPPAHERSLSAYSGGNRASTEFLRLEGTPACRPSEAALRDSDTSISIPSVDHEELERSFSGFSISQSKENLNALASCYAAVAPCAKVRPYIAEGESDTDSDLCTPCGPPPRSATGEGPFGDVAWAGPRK
# KCNQ2 enhance baseline: recorded beside KCNQ2 enhance, whose call it bears; B-score; compound at 10 µM; measured here: initial fluorescence intensity artifact check;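 brightness before thallium and not channel activity; 0 = typical well and far values either way flag optical interference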
# An asterisk follows results filed as active. This is a subset (hit frequency here may not be typical).
molecule	KCNQ2 enhance	KCNQ2 enhance baseline
O=C(NNS(=O)(=O)c1ccc(Br)cc1)NC1CCCCC1	0.12	1.21
COCCOC(=O)C1=C(C)NC(=O)NC1C1CC=CCC1 (centres undefined)	2.51	-0.48
COc1cc([N+](=O)[O-])ccc1-c1ccc(/C=N/NC(=O)OC(C)(C)C)o1	0.2	0.04
CC(C)C(=O)Nc1c2c(nc3c1CCC3)CCCC2	0.8	-0.4
Cc1ccccc1-c1ccc(=O)n(CC(=O)Nc2ccc(C(=O)N3CCCC3)cc2)n1	0.65	0.58
O=C(CCN1C(=O)COc2ccccc21)NCCN1CCOCC1	0.79	-0.38
Cc1cc(OCC(=O)O/N=C(\N)Cc2cccs2)ccc1Br	1.17	-0.01
COC(=O)c1cccc(NC(=O)C23CC4CC(C2)CC(n2cncn2)(C4)C3)c1	0.08	-2
O=C(NCCc1c[nH]c2ccccc12)C(=O)NCC1OCCCN1S(=O)(=O)c1cccs1 (centres undefined)	2.64	-0.91
CC(C)C[C@H](N)c1cn([C@@H](Cc2cc3ccccc3[nH]2)C(=O)N2CCNCC2)nn1	1.07	0.61
COc1ccc(N2CCN(C(c3ccco3)c3sc4nc(C)nn4c3O)CC2)cc1 (centres undefined)	0.06	0.3
COc1ccc(OC)c(NC(=O)c2cccc(NC(=O)c3ccccc3)c2)c1	0.67	2.98
COc1cc(/C=N/NC(=O)CNC(=O)c2ccncc2)ccc1O	0.15	-1.52
O=C1C=C(NC2CC2)C2(CCCCC2)O1	0.45	-0.54
CCN(CC)C(=O)CCCSc1nnc(Nc2ccccc2F)s1	1.41	0.2
CCN1CCN(c2ccc(NC(=O)COc3ccccc3Cl)cc2)CC1	0.14	0.12
Cc1ccc(NC(=O)CSc2nc3c([nH]c4ccccc43)c(=O)n2C)cc1	1.54	0.03
COc1ccccc1/C=C1\SC(=S)N(C(C(=O)O)c2ccccc2)C1=O (centres undefined)	0.75	-0.58
O=C(Nc1nonc1NC(=O)C1CCCCC1)C1CCCCC1	1.14	-0.21
CN(C)c1ccc(/C=N/Nc2ccc(-n3ccnc3)nn2)cc1	0.11	-0.23
COc1ccc(/C=C/C(=O)NCc2ccc(F)cc2)cc1S(=O)(=O)N1CCOCC1	0.01	-3.6
O=C(CSCc1ccccc1Cl)NNC(=O)c1ccccc1	1.09	0.42
COCCN1C(=O)N(C)[C@@H](c2ccccc2)C(C(C)=O)=C1C	0.82	0.86
COc1ccccc1C(=O)Nc1ccnn1C1CCN(CCCc2ccccc2)CC1	0.95	-0.39

# Arranged by value in KCNQ2 enhance (smallest number first): 3 from the list above.
molecule	KCNQ2 enhance	KCNQ2 enhance baseline
CCN1CCN(c2ccc(NC(=O)COc3ccccc3Cl)cc2)CC1	0.14	0.12
COCCN1C(=O)N(C)[C@@H](c2ccccc2)C(C(C)=O)=C1C	0.82	0.86
O=C(CSCc1ccccc1Cl)NNC(=O)c1ccccc1	1.09	0.42

# Continuation.
molecule	KCNQ2 enhance	KCNQ2 enhance baseline
Cc1ccc(C(=O)N2C(=O)c3cccc(N)c3C2=O)o1	1.87	-0.76
CCSc1nc2c(c(=O)[nH]c(=O)n2C)n1C	0.99	0.54
Cc1ccc(C(=O)NC(=S)N2CCN(C(=O)OC(C)(C)C)CC2)cc1Br	1.26	-3.28
Cc1c(Cl)c([N+](=O)[O-])nn1CCCC(=O)Nc1sc2c(c1C#N)CCC2	1.49	-1.19
COc1ccc(Cn2c(C)c(C)c(C#N)c2NC(=O)Nc2ccc(Cl)cc2)cc1	1.15	0.01
Cc1ccccc1NCCC(=O)Nc1ccc(F)cc1	0.26	0.33
CC(C)CCNC(=O)C1CC2Cn3c(nc4cc(Cl)c(Cl)cc43)C2N1C (centres undefined)	0.26	-0.08
Cc1cccc2cc(CNCC3CCCO3)c(Cl)nc12 (centres undefined)	0.31	-0.03
O=C(CSc1nc(-c2ccco2)cc(C(F)(F)F)n1)N1CCSCC1	11.8*	-0.06*
Cc1ccccc1OCc1nc2c3cnn(C)c3ncn2n1	0.96	-0.21
COc1ccc(-c2cn(Cc3ccc4ccccc4c3)nn2)cc1	0.09	-0.28
COc1cccc(NC(=O)CSc2nnc(NC(=O)C3CCC3)s2)c1	0.05	-1.1
COc1ccc2oc(=O)c(-c3nnc(NCc4ccco4)s3)cc2c1	0.04	0.78
CCOC(=O)CNC(=O)CN1C(=O)CCSc2ccccc21	0.54	-0.53
CS(=O)(=O)N(CC(=O)N1CCN(c2ccccc2)CC1)c1cc(C(F)(F)F)ccc1Cl	0.36	-0.53
CCN(CC)S(=O)(=O)c1ccc(NN=c2c(=O)c3ccccc3c2=O)cc1	0.03	-0.46
O=C(CCc1nc2ccccc2s1)OCc1ccccc1F	0.68	-0.47
Cc1c(C(=O)N2CCC(n3nccc3NC(=O)C3CC3)CC2)[nH]c2ccc(Cl)cc12	0.7	1.37
Cc1c(C(=O)NCCN2CCCC(O)C2)oc2c(F)cccc12 (centres undefined)	0.03	0
CCC1(CC)C(=O)Nc2ccccc21	1.82	-0.88
CCN(CC)S(=O)(=O)c1ccc(NC(=O)c2ccc(CN3CCOCC3)cc2)cc1	0.71	0.66
O=C1COc2ccc(C(=O)COC(=O)Cc3ccc(F)cc3)cc2N1	0.62	0.03
COCC(C)NC(=S)NCCc1ccc(Cl)cc1Cl (centres undefined)	1.05	-1.58
CC(=O)Nc1ccc(C(=O)N/N=C/C2CC3C=CC2C3)cc1 (centres undefined)	0.66	0.02
CC(NC(=O)c1ccc(Cl)s1)C1CCCO1 (centres undefined)	1.28	-0.2
CCOC(=O)C1CCCN(C(=O)c2ccc3nc(-c4ccc(OC)c(OC)c4)c(-c4ccc(OC)c(OC)c4)nc3c2)C1 (centres undefined)	0.19	-0.03
O=C(NC(=S)N1CCCC1)c1ccc(Cl)cc1	2.07	1.65
COC(=O)c1cccnc1NC(=S)NNC(=O)c1ccncc1	0.16	1.02
CC(=O)N/N=C(\C)c1ccc2c(c1)OCCO2	1.61	-0.41
S=C(Nc1ccccc1Cl)N(CCCN1CCOCC1)Cc1ccco1	2.21	-1.02
COc1ccccc1-c1nc(-c2ccc(Br)cc2)no1	0.92	-1.47
CC1CCC2(CC1)NC(=O)N(CC(=O)NC1(C#N)CCCCC1)C2=O (centres undefined)	0.01	-0.21
CCN(C(=O)Cc1ccccc1OC)c1nnc(-c2ccncc2)s1	0.59	0.03
CC(C)Oc1ccc(/C=N/NC(=O)c2nnn(-c3nonc3N)c2CN(C)c2ccccc2)cc1	0.36	2.19
COCC(C)NC(=O)c1ccc2nc(-c3ccccc3)c(-c3ccccc3)nc2c1 (centres undefined)	0.09	-1.88
N#Cc1ccc(C(=O)Nc2cccc3ccccc23)c(F)c1	1.28	1.68
O=C(COc1ncnc2c(Cl)cc(Cl)cc12)NCCC1=CCCCC1	1.17	2.49
O=C(CSc1nnc(-c2ccccc2)c(-c2ccccc2)n1)Nc1ccc(Br)cn1	1.45	1.54
CCOC(=O)N1CCN(C(=O)CN(c2ccc(OC)cc2)S(C)(=O)=O)CC1	26.6*	-0.53*
O=C(Cn1ccc([N+](=O)[O-])n1)Nc1nccs1	0.03	0.47
COc1ccc(CCNC(=S)N2CCC(C(N)=O)CC2)cc1	1.69	1.46
CCS(=O)c1ccccc1C(=O)OC(C)C(=O)Nc1ccc(S(=O)(=O)N2CCCC2)cc1 (centres undefined)	1.79	0.01
OCCN(CC#CCC(O)(c1ccccc1)C1CCCC1)CCO (centres undefined)	0.82	-3.42
CCOC(=O)C1C(=O)CC(C)(O)C(C(=O)OCC)C1c1ccc(F)cc1 (centres undefined)	0.94	-0.58
CC(=O)NCC12CC3CC(C1)CC(C(=O)O)(C3)C2	1.52	-1.71
Cc1ccc(Cl)cc1NC(=O)C1CCCN1S(=O)(=O)c1ccc(-c2ccc(=O)[nH]n2)s1 (centres undefined)	1.04	-1.4
Cn1c(=O)c2c(nc(NCc3ccco3)n2C/C=C/c2ccccc2)n(C)c1=O	1.57	-0.01
CC(=O)N1CCc2c(sc(NC(=O)CCS(=O)(=O)c3ccc(C)cc3)c2C#N)C1	0.08	0.15

# Continued, overlapping the part above by 5 compounds.
molecule	KCNQ2 enhance	KCNQ2 enhance baseline
CCOC(=O)C1C(=O)CC(C)(O)C(C(=O)OCC)C1c1ccc(F)cc1 (centres undefined)	0.94	-0.58
CC(=O)NCC12CC3CC(C1)CC(C(=O)O)(C3)C2	1.52	-1.71
Cc1ccc(Cl)cc1NC(=O)C1CCCN1S(=O)(=O)c1ccc(-c2ccc(=O)[nH]n2)s1 (centres undefined)	1.04	-1.4
Cn1c(=O)c2c(nc(NCc3ccco3)n2C/C=C/c2ccccc2)n(C)c1=O	1.57	-0.01
CC(=O)N1CCc2c(sc(NC(=O)CCS(=O)(=O)c3ccc(C)cc3)c2C#N)C1	0.08	0.15
COC(=O)c1ccc(S(=O)(=O)N2CCCC2)o1	0.69	-2.27
CSCCC(NS(=O)(=O)c1ccccc1F)C(=O)NCC(c1ccc(F)cc1)N1CCOCC1 (centres undefined)	0.07	0.93
COc1cccc(/C=C2\SC(=S)N(CCC(=O)N3CCCCC3)C2=O)c1	0.04	-1.63
COc1ccc(C(=O)CC(=O)C(=O)Nc2cc(OC)c(OC)c(OC)c2)cc1	0.97	-0.32
CC1(C)Cc2c(sc3[nH]c(=S)[nH]c(=O)c23)CO1	1.03	0.31
O=C(NCc1cn2ccsc2n1)Nc1ccc(Cl)cc1	0.65	0.62
N/C(CS(=O)(=O)c1ccccc1)=N\OC(=O)c1ccc(F)cc1	1.54	-1.38
NS(=O)(=O)c1ccc(CNC(=O)Cc2cccs2)cc1	2.04	-0.53
Cc1ccc(CN(C)C(=O)CCc2nc3sc4c(c3c(=O)[nH]2)CCCC4)o1	0.25	0.61
Cc1cc(NC(=O)CSc2nccn2-c2cccc(C)c2C)no1	1.13	-0.16
CCC(C)(O)c1[nH]c2ccc(C(F)(F)F)cc2c1C (centres undefined)	1.12	-1.8
CC1=CC(C)C2C(=O)N(O)C(=O)C2C1 (centres undefined)	0.06	2.56
CCOC(=O)CSc1nc2c(cnn2-c2ccc(C)cc2)c(=O)[nH]1	1.29	1.71
O=C(O)Cc1sc(N/N=C\c2ccccc2)nc1-c1ccccc1	0.65	-0.37
COc1cc(CCCN2C(N)=NC[C@@H]2Cc2ccccc2)cc(OC)c1OC	0.67	-1.98
CCCC12CN3CCN(CC(C3)/C1=N\NC(=O)c1ccccc1N)C2	1.86	-1.29
COC(=O)CCC(=O)NC(=S)Nc1ccc(S(=O)(=O)N2CCCC2)cc1	0.63	0.2
O=C(Nc1ccnn1C1CCN(CCCc2ccccc2)CC1)c1ccccc1	0.24	-1.11
C=CCSc1nnc(-c2cc(Br)ccc2N)c(=O)[nH]1	1.68	0.23
COc1ccc([C@@H]2[C@@H]3C(=O)N(C(C)(C)C)C(=O)[C@@H]3[C@]3(Cc4ccccc4)C(=O)N(c4ccc(Br)cc4)C(=O)N23)cc1	0.1	-1.45
Cc1ccc2c(c1)sc1nc(=O)n(-c3cccc(Cl)c3)c(=O)n12	0.22	1.31
CCCc1ccc(C(=O)NNc2ccc(F)cc2)cc1	0.18	1.1
CCOC(=O)C(NC(=O)C1CCCN1C(=O)OCc1ccccc1)C(=O)OCC (centres undefined)	0.82	-0.76
CNc1c(N)n(Cc2ccccc2)c(=O)[nH]c1=O	0.72	0.11
CC(C)NC(=O)NC(=O)CSc1ncc(C(F)(F)F)cc1Cl	1.13	-1.71
Cn1c(C(C(=O)NCC2CCCO2)N(CCc2ccccc2)C(=O)Cn2nnc3ccccc32)nc2ccccc21 (centres undefined)	1.38	-0.45
Cc1cccn2c(=O)c3cc(C(=O)NCC4CCCO4)c(=N)n(C4CCCC4)c3nc12 (centres undefined)	1.07	-1.03
Cn1c(SCC(=O)N2c3ccccc3Sc3ccccc32)nnc1-c1ccco1	0.77	0.67
C=CCOc1c(Br)cc(CNc2ccc(NC(=O)CCC)cc2)cc1OCC	18*	-0.91*
CC(C)(C)c1ccc(S(=O)(=O)N2CCC(O)(c3ccc(Cl)cc3)CC2)cc1	0.04	0.06
CC(NC(=O)Cn1cc(C(=O)C2CC2)c2ccccc21)c1ccccc1 (centres undefined)	0.34	-0.68
COc1ccc(NS(=O)(=O)c2cccc3cccnc23)cc1Cl	0.02	0.32
O=C(O)[C@H](CSCc1ccccc1)NS(=O)(=O)c1ccc(F)cc1	0.05	1.19
CC(=O)C[C@H]1c2cc(C(F)(F)F)ccc2S(=O)(=O)N1c1ccccc1	2.12	0.27
CCOc1ccc2ccccc2c1/C=N\NC(=O)OC	0.68	-0.13
Cc1cccc(C)c1NC(=O)COc1ccc2c(C)c(Cc3ccccc3)c(=O)oc2c1	0.33	-0.62
O=C1CC(c2ccco2)CC(O)=C1C=NCCN1CCN(C(=O)Nc2ccc(Cl)cc2)CC1 (centres undefined)	0.1	0.12
O=C(O)c1ccc2ncsc2c1	0.21	-3.07
O=S(=O)(Nc1ccc2c(c1)nc1n2CCOC1)c1ccccc1	0.44	0.74
COc1ccc(Cl)cc1Nc1nc(NCCO)nc(N2CCCCC2)n1	1.36	-0.06
Cc1cccc(/C(N)=N/OC(=O)c2ccc(Cl)cc2Cl)c1	0.98	-2.17
O=C(O)CNC(=O)c1nc(-c2ccccc2)n(-c2ccccc2)n1	1.74	-0.79
CCCc1cc(=O)oc2cc(OCC(=O)Nc3ccccn3)ccc12	0.6	-0.4
Cc1nn(C(=O)Cn2ccc([N+](=O)[O-])n2)c(C)c1Br	0.43	0.57
CS(=O)(=O)c1cccc(C(=O)Nc2ccc(-c3nc4ccccc4[nH]3)cc2)c1	1.74	0.84
COc1ccccc1/C=N/NC(=O)NC12CC3CC(CC(C3)C1)C2	0.48	-2.75
